HIV peptide binding: inhibitors of HIV fusion peptide binding, primary screen, biochemical, uHTS, fluorescence dequenching (AID 1986); cell-free peptide binding, fluorescence dequenching, 30 min; higher % means a stronger effect; inhibition, % at 20 µM, or IC50 in µM where a hit was titrated; 290,000 compounds, 0.3% hits; in the data active = inhibition mostly above about 52%, no sharp cut-off; inactive = mostly below about 76%; also: some results filed as inactive read as strong as hits
Lipid droplet: inhibitors of hepatocyte lipid droplet formation, primary screen, imaging, high-throughput imaging, BODIPY stain; 240,000 compounds, 0.4% hits; AML12 mouse hepatocytes, oleate lipid droplets; inhibition, % at 6.5 µM;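 active = lipid droplet intensity inhibited by at least 50%, with more than 500 cells counted; inconclusive = wells with under 300 cells, treated as cytotoxic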
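Technique: fluorescence imaging, 20x objective, two fields per well / Assay system: AML12 hepatocytes (mouse) / Measure: % inhibition of lipid droplet signal / Doses: 6.5 µM single-point dosing / Incubation: overnight exposure / Reagent: 100 µM oleic acid challenge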
SIAH1 antagonists: Siah-1 peptide-binding antagonists, primary screen, biochemical, fluorescence polarization, rhodamine-plectin, uHTS (AID 1817) | E3 ubiquitin-protein ligase SIAH1 (Homo sapiens) | Siah-1 / rhodamine-plectin peptide fluorescence polarization; higher % means a stronger effect | one-dose displacement, % at 20 µM; IC50 in µM for titrated hits | 290,000 compounds, 0.02% hits;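 active = displacement of at least 50% at 20 µM, with a fluorescence ratio check between 0.3 and a set limit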;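 also: plate controls were Siah plus tracer with DMSO for no effect and tracer alone without Siah for full effect; strong numbers were not always called active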
LYP inhibition: inhibitors of LYP phosphatase, biochemical, fluorescence intensity, uHTS (AID 1779) | Tyrosine-protein phosphatase non-receptor type 22 (Homo sapiens) | recombinant LYP phosphatase, fluorescence intensity; higher % means a stronger effect | 290,000 compounds, 0.054% hits | one-dose inhibition, % at 11.5 µM; IC50 in µM for titrated hits; in the data active = inhibition above about 50%;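 also: plate controls were vehicle with enzyme for no effect and no enzyme for full effect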
Dengue-2 NS5 capping: Dengue-2 NS5 methyltransferase inhibitors, primary screen, biochemical, confirmation dose response (AID 588689); Genome polyprotein (Dengue virus type 2 (strain 16681-PDK53)); Dengue-2 NS5 methyltransferase capping enzyme assay, biochemical; higher % means a stronger effect; inhibition, % at 25 µM; hits with a dose series show IC50 in µM; 340,000 compounds, 0.3% hits; in the data active = a potency from the dose series; inconclusive = inhibition above about 29% without an active follow-up result
XIAP displacement: XIAP antagonists, biochemical, IAP family, fluorescence polarization (AID 1018). E3 ubiquitin-protein ligase XIAP (Homo sapiens). XIAP BIR domain, fluorescence polarization peptide displacement; higher % means a stronger effect. displacement, % at 20 µM, or IC50 in µM where a hit was titrated. 200,000 compounds, 0.007% hits; in the data active = displacement above about 50%; also: a part of the inactive calls stands beside numbers as strong as those of hits
AID2073: inhibitors of Mint1-CaV2.2 protein interaction, biochemical, HTRF (AID 2073); HTRF protein-protein interaction, Mint1-CaV2.2; higher % means a stronger effect; inhibition, % at 20 µM, or IC50 in µM where a hit was titrated; 290,000 compounds, 0.19% hits; Voltage-dependent N-type calcium channel subunit alpha-1B (Homo sapiens); in the data active = inhibition mostly above about 51%, no sharp cut-off; inconclusive = no clear call, values can overlap the other calls; inactive = mostly below about 53%; also: some results filed as inactive read as strong as hits
Myeloid diff 2: induction of myeloid progenitor differentiation, primary screen, cell-based, flow cytometry, MLPCN library | ER-HoxA9 myeloid progenitors, lysozyme-GFP differentiation | calls only at 10 µM | 360,000 compounds, 1% hits;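 active = normalized GFP-positive differentiation at or above the plate's own cutoff, the solvent-only control mean plus 3 SD; inconclusive = no clear call, values can overlap the other calls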;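 also: cells exposed to compound for four days before flow analysis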
Lipid droplet cells 6.5 µM: also measured in Lipid droplet; calls as there; cell count; measured here: cell count, cytotoxicity flag;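 cells counted across two imaged fields per well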
Dengue-2 NS5 capping pilot replicate: further read-out of Dengue-2 NS5 capping, marked with its call; inhibition, %; measured here: pilot screen replicate inhibition
Myeloid diff 2 GFP+ MAC1+ %: also measured in Myeloid diff 2; calls as there; GFP+ MAC1+ double positive, %; measured here: differentiation confirmed by MAC1 staining
Numbers without * were called inactive; i = inactive; ? = inconclusive; nt = no result given. A portion of the library; the hit share may differ from the screen's.

SMILES | HIV peptide binding | Lipid droplet | Lipid droplet cells 6.5 µM | SIAH1 antagonists | LYP inhibition | Dengue-2 NS5 capping | XIAP displacement | AID2073 | Myeloid diff 2 | Myeloid diff 2 GFP+ MAC1+ % | others
CN(c1ccccc1)S(=O)(=O)c1ccc(NC(=O)c2nc(S(C)(=O)=O)ncc2Cl)cc1 | -1.1% | 0 | 687 | -3% | 12% | -65% | nt | -48% | ? | nt
Nc1nc(N)c2cc(Sc3ccc4ccccc4c3)ccc2n1 | 0.1% | -39 | 395 | 16% | -18% | nt | nt | 16% | ? | nt
COc1ccccc1C(=O)Nc1nc2ccccc2[nH]1 | 0.3% | -6 | 823 | 13% | -9% | 1% | nt | 5% | i | 2.0
C=CCN1C(=O)/C(=C/c2ccc(OC(C)=O)c(OCC)c2[N+](=O)[O-])SC1=S | 34% | -2 | 751 | -8% | 1% | -50% | -0.5% | 22% | i | 1.1
C/C(=N\NC(=O)c1ccc(Cl)cc1)c1ccccn1 | 0.7% | -117 | 486 | 3% | -6% | 3% | nt | -1% | ? | nt | Dengue-2 NS5 capping pilot replicate=-1.5
O=S(=O)(Nc1nc2ccccc2[nH]1)c1ccc(Cl)cc1 | 1.6% | nt | nt | -3% | -4% | 6% | -3.9% | -12% | i | 2.8
COc1ccc(-c2csc(-c3cccs3)n2)c(OC)c1 | 2.7% | 0 | 724 | 8% | 8% | -1% | -4.8% | ? | i | 0.1
CC1=CC(C)(C)Nc2ccc(OC(=O)CN3C(=O)C4CCCCC4C3=O)cc21 (centres undefined) | -0.1% | 10 | 775 | 7% | -5% | -5% | -21% | -23% | ? | nt
COc1ccc(C2=Nn3c(nnc3-c3ccncc3)SC2)cc1 | -0.2% | -15 | 799 | -5% | 0% | -1% | -4.6% | -7% | i | 0.6
COc1cc(/C=C2\SC(=N)N(c3ccc(F)cc3)C2=O)ccc1O | -6.1% | -10 | 699 | -8% | -6% | -51% | -1.6% | 9% | i | 0.3
O=C(N/N=C/c1ccc([N+](=O)[O-])s1)c1ccccc1Br | 16% | nt | nt | 6% | -8% | 2% | -3.1% | -11% | i | 2.0
O=C(NCC1CCN(Cc2ccc(Cl)cc2)CC1)C1CCCN(c2ncnc3c2nc2n3CCCCC2)C1 (centres undefined) | -0.7% | -2 | 659 | 15% | -7% | 6% | nt | -3% | i | 0.8
N=c1c2c(n(Cc3ccc(Cl)cc3)c3c1CCC3)CCC2 | -2.5% | nt | nt | 0% | -17% | 2% | -6.8% | -6% | i | 0.5
COc1ccccc1CN(Cc1nc2ccccc2c(=O)[nH]1)S(=O)(=O)c1ccc2ccccc2c1 | -0.8% | 5 | 722 | -6% | 6% | -4% | -3.6% | 28% | i | 3.1
Cn1c2c(c(=O)n(C)c1=O)C(C(F)(F)F)(C(F)(F)F)N=C(c1ccc(Cl)cc1)N2 | 5.0% | nt | nt | 5% | 1% | -2% | -3.2% | 5% | nt | nt
O=C(Nc1nc2ccccc2s1)c1ccccc1 | -0.4% | 18 | 708 | -3% | -2% | -2% | -8.0% | 6% | i | 0.5
CC(C)(C)c1cc(NC(=O)CCl)n(-c2ccccc2)n1 | -0.7% | -2 | 662 | 3% | -4% | -7% | nt | 7% | i | 0.1
O=C(C1CCC(CNS(=O)(=O)c2cccs2)CC1)N1CCN(c2ccc(Cl)cc2)CC1 (centres undefined) | 1.6% | 24 | 689 | 5% | -3% | -7% | nt | 6% | i | 2.6
COc1cc(/C=C2/CCc3ccccc3C2=O)cc(OC)c1OC | -2.0% | -12 | 558 | 7% | -3% | -3% | -4.7% | -2% | i | 0.7
COc1ccc(-c2nnc(NC(=O)c3ccc(F)cc3)o2)cc1 | 4.7% | 11 | 521 | -2% | -2% | -3% | -5.7% | -2% | i | 0.7
COc1cc(OC)cc(-c2nnc(NC(=O)c3ccc4c(c3)OCCO4)o2)c1 | -0.5% | 17 | 738 | 4% | -11% | -4% | nt | 24% | i | 3.8
COc1ccc(S(=O)(=O)/N=C2\C=C(Nc3ccc(O)cc3)C(=O)c3ccccc32)cc1 | -5.7% | -53 | 638 | 8% | -1% | 10% | nt | -13% | ? | nt
Cc1oc(-c2cc(F)ccc2F)nc1CN1CCN(c2ncnc3ccccc23)CC1 | -0.3% | -19 | 605 | -6% | -3% | -9% | -3.4% | -15% | i | 0.9
C/C(=N\NC(=O)c1nnn(-c2nonc2N)c1CN1CCCCC1)c1ccccc1O | -1.1% | 15 | 709 | 0% | -6% | -10% | nt | 20% | nt | nt
COc1ccc(CCNc2ncnc3sc(C)cc23)cc1OC | -1.2% | -55 | 620 | 5% | -9% | 3% | nt | 11% | i | 3.5

More entries
SMILES | HIV peptide binding | Lipid droplet | Lipid droplet cells 6.5 µM | SIAH1 antagonists | LYP inhibition | Dengue-2 NS5 capping | XIAP displacement | AID2073 | Myeloid diff 2 | Myeloid diff 2 GFP+ MAC1+ % | others
CN(C)S(=O)(=O)c1cccc(CSCc2cccc(S(=O)(=O)N(C)C)c2)c1 | -0.7% | -39 | 786 | -8% | -8% | -4% | nt | 9% | i | 1.1
CCS(=O)(=O)c1ncc(Cl)c(C(=O)Nc2ccc(C)cc2)n1 | 0.5% | -9 | 865 | 1% | -2% | -59% | nt | -22% | nt | nt
O=[N+]([O-])c1ccc(NC(=S)NCCc2ccc(Cl)cc2)cc1 | -0.4% | -1 | 625 | 2% | 7% | 1% | -2.6% | -4% | i | 0.9
CCc1ccc(N(CC)c2ncnc3nc[nH]c23)cc1 | 1.5% | 7 | 606 | -2% | -2% | 2% | -4.7% | 12% | i | 1.0
NC(=O)c1sc2nc3c(c(-c4ccco4)c2c1N)CCCC3 | -1.0% | -1 | 691 | 0% | -1% | -3% | nt | 2% | i | 0.4
Fc1ccccc1/C=N/Nc1nc(-c2ccccn2)nc2ccccc12 | -1.1% | -8 | 659 | -10% | -2% | nt | nt | -4% | nt | nt
CCOC(=O)N1CCN(C(=O)C2CCCN(Cc3nc(-c4ccc(Cl)cc4)oc3C)C2)CC1 (centres undefined) | -1.3% | nt | nt | 1% | 7% | 1% | -16% | 6% | ? | nt
O=c1cc(CSc2nnc(-c3cccs3)n2Cc2ccccc2)nc2sc3ccccc3n12 | -0.4% | nt | nt | 12% | 1% | -4% | 0.8% | 28% | i | 1.9
COc1ccc(CCNc2ncnc3cc(OC)c(OC)cc23)cc1OC | 0.2% | -20 | 611 | -7% | -6% | 0% | -8.5% | 3% | i | 1.0
Cc1nnc(SCC(=O)N2CCC(c3noc4ccc(F)cc34)CC2)s1 | -0.7% | -14 | 728 | 1% | -7% | -4% | -4.9% | -5% | i | 4.2
CCN1/C(=C\c2ccc3ccccc3[n+]2CC)Sc2cc(C)ccc21 | 12% | -91 | 618 | 0% | -3% | -106% | -5.7% | -2% | i | 0.1
Cc1ccc(NC2=C/C(=N\S(=O)(=O)c3cccs3)c3ccccc3C2=O)c(C)c1 | -1.0% | ? | nt | 8% | 2% | 13% | -8.6% | 3% | ? | nt
CC(C)(C)C(=O)/C(=C/c1ccc(Cl)cc1)n1cncn1 | -2.0% | -29 | 797 | 4% | -4% | -20% | nt | -7% | ? | nt
Cc1ccc(-n2nc3c(=O)n(C(C)C(=O)NCCC4=CCCCC4)nc(C)c3c2C)cc1 (centres undefined) | -1.0% | 58* | 729* | 0% | -5% | -7% | nt | 8% | i | 0.5
Cc1nn(-c2cccc(Cl)c2)c2nc(C(F)(F)F)[nH]c(=O)c12 | 11% | -33 | 647 | -2% | -12% | 7% | -11% | 4% | i | 1.1

At a glance, 5 of the compounds above:
SMILES | HIV peptide binding | Lipid droplet | Lipid droplet cells 6.5 µM | SIAH1 antagonists | LYP inhibition | Dengue-2 NS5 capping | XIAP displacement | AID2073 | Myeloid diff 2 | Myeloid diff 2 GFP+ MAC1+ % | others
CN(C)S(=O)(=O)c1cccc(CSCc2cccc(S(=O)(=O)N(C)C)c2)c1 | -0.7% | -39 | 786 | -8% | -8% | -4% | nt | 9% | i | 1.1
CCS(=O)(=O)c1ncc(Cl)c(C(=O)Nc2ccc(C)cc2)n1 | 0.5% | -9 | 865 | 1% | -2% | -59% | nt | -22% | nt | nt
O=[N+]([O-])c1ccc(NC(=S)NCCc2ccc(Cl)cc2)cc1 | -0.4% | -1 | 625 | 2% | 7% | 1% | -2.6% | -4% | i | 0.9
CCc1ccc(N(CC)c2ncnc3nc[nH]c23)cc1 | 1.5% | 7 | 606 | -2% | -2% | 2% | -4.7% | 12% | i | 1.0
NC(=O)c1sc2nc3c(c(-c4ccco4)c2c1N)CCCC3 | -1.0% | -1 | 691 | 0% | -1% | -3% | nt | 2% | i | 0.4
